Compound activity as filed in PubChem.
2A firefly: lowers the firefly signal of an FMDV 2A StopGo reporter | HEK cells with a luciferase reporter of 2A StopGo recoding | Potency, µM (doses to about 57.5 µM), inactives show top-dose signal change, negative = less light | 120,000 tested, 0.23% active; active = well fitted falling curve with a large enough effect; inconclusive = small, poorly fitted or top-dose-only effect; inactive = no such curve, though single readings can be large or run the other way; further: nearly all actives have a fitted effect of over 60% in size; overnight with compound
StopGo RLuc: FMDV 2A StopGo reporter, Renilla signal; HEK cells with a luciferase reporter of 2A StopGo recoding; AID 1745857; 120,000 tested, 0.32% active; Potency, µM (series often up to 57.5 µM), inactives show at the top dose signal change, negative = less light; active means well fitted falling curve with a large enough effect; inconclusive means small, poorly fitted or top-dose-only effect; inactive means no such curve, though single readings can be large or run the other way; further: nearly all actives have a fitted effect of over 55% in size; overnight with compound
Numbers without * were called inactive; ? = inconclusive; & = joins results of further samples; [ ] = another dose, or the depositor's remark. On the % scale 0 is the no-effect control and ±100 the full control effect; potency means the concentration at half of the fitted maximal effect. Some of the compounds tested, so the mix of outcomes need not match the whole.

SMILES | 2A firefly | StopGo RLuc
CCn1c(=O)c2sccc2n2c(CCC(=O)N3CCN(c4ccccc4OC)CC3)nnc12 | 20% | 18%
COc1ccc(CNCCc2c(C)[nH]c3ccc(OC)cc23)c(F)c1 | 8.9µM* | 7.1µM*
CC(C)CCNc1ncnc2c1cnn2-c1cccc(Cl)c1 | 219%[activator] | 8%
COc1ccc(C)cc1NC(=O)c1noc2c1CSc1ccccc1-2 | -12% | -13%
CCCCCCNC(=O)CCNC(=O)c1cccc(C)c1 | -2% | 8%
O=c1oc2ccc(Cl)cc2cc1-c1csc(Nc2ccccc2)n1 | 23% | 1%
CC(C)(C)c1ccc(C(=O)NC(Nc2ccc(Br)cc2)C(Cl)(Cl)Cl)cc1 (stereo not given) | ? | ?
CC(Sc1ccccn1)C(=O)NC(C)c1ccc(F)cc1 (stereo not given) | -1% | -3%
Cc1ccc(N(C)C(=O)c2noc3c2CCCCC3)cc1C | -9% | 9%
CNC(=O)c1cccc(-n2c(C)nc3cccnc32)c1C | -9% | -9%
COc1ccc(NC(=O)c2ccc3c(c2)sc2nc(-c4ccc(OC)cc4)cn23)cc1 | 52%[activator] | -4%
CCCCCn1c(=O)[nH]c2cc(C(=O)N3CCN(c4cccc(OC)c4)CC3)ccc2c1=O | -22% | -11%
CCOC(=O)C1=C(CN2CCN(c3ccc(C)cc3C)CC2)NC(=O)NC1c1ccc(OC)cc1 (stereo not given) | -1% | 3%
CCN(CC)CCNC(=O)C(=O)NCC(c1ccc2c(c1)OCO2)N1CCOCC1 (stereo not given) | -20% | -21%
CC(COc1ccc(Br)cc1)CN1CCC(C(O)(c2ccccc2)c2ccccc2)CC1 (stereo not given) | -4% | -2%
Cc1ccccc1CSCc1ccc(C(=O)NCCc2ccccc2)o1 | 40%[activator] | 12%
CC(CN1CCCC1)OC(=O)c1ccc(C(C)(C)C)cc1 (stereo not given) | 19% | -7%
CCc1ccc(-c2cc3c(=O)[nH]nc(SCC(=O)NC4CCCCC4)n3n2)cc1 | 128%[activator] | -3%
S=C(NCCc1ccc(Cl)cc1)Nc1ccc(Oc2ccccc2)cc1 | -7% | 58%[activator]
Cc1ccccc1CSc1nnc2[nH]c(=O)cc(C)n12 | -8% | 11%
CCCOc1ccc(OC(=O)c2ccc(-c3ccc(CCC)cn3)cc2)cc1 | 47% | 4%
CCOC(=O)NCc1cccc(CNC(=O)OCC)c1 | 13% | 1%
O=C(NCCc1ccccc1)C(=O)NCC(c1ccc2c(c1)OCO2)N1CCOCC1 (stereo not given) | -18% | 33%[activator]
Cc1oc(-c2nc(C#N)c(NC(C)c3ccccc3)o2)cc1S(=O)(=O)N(C)C (stereo not given) | ? | 20%
COc1ccc(NC(=O)CSc2nccn2-c2cccc(C(F)(F)F)c2)cc1 | -5% | 8%
Next part:
SMILES | 2A firefly | StopGo RLuc
O=c1oc2ccc3ccccc3c2cc1-c1nnc(Nc2ccccc2F)s1 | 0% | -6%
O=C(CN1CCN(c2ccc([N+](=O)[O-])c3cnccc23)CC1)Nc1ccc(OC(F)(F)F)cc1 | ? | -28%
CCSc1nnc(-c2c[nH]c3ccccc23)n1C1CC1 | 14% | 0%
CSc1ncc(Cl)c(C(=O)Nc2ccc(S(=O)(=O)Nc3nccc(C)n3)cc2)n1 | 0% | -7%
CCOC(=O)N1CCN(C(=O)CN(c2cc(Cl)ccc2OC)S(C)(=O)=O)CC1 | 0% | 10%
COc1ccc(OCc2ccc(-c3nc(C#N)c(N4CCCCC4)o3)o2)cc1 | -2% | -6%
COc1ccc(NC(=O)C(NS(=O)(=O)c2cccc3nsnc23)C(C)C)cc1OC (stereo not given) | -15% | -9%
CCc1ccc(-c2csc(-c3nc(-c4ccc(C)cc4)c(C)s3)n2)cc1 | 12% | 4%
COc1ccc(Cl)cc1NC(=O)CCc1ncc(-c2c(F)cccc2F)o1 | 28% | 16%
Cc1cccc2cc(COC(=O)c3cccs3)c(=O)[nH]c12 | -3% | -16%
CNc1snc(C)c1C(=O)N(C)CCOc1cccc(Cl)c1 | -14% | -19%
Cc1ccc(S(=O)(=O)N(CC(=O)O)Cc2ccc(Cl)c(Cl)c2)cc1 | 3% | 7%
CCOC(=O)/C=c1/s/c(=C/c2ccsc2)c(=O)n1C | 2% | 1%
Cc1ccc(Cn2c(=O)n(Cc3ccco3)c(=O)c3sc4ccccc4c32)cc1 | -9% | -13%
Cc1cc(NC(=O)Nc2nc3c(s2)CCCCCC3)ccc1Br | -7% | -15%
O=S(=O)(O)C(F)(F)C(F)(F)C(F)(F)C(F)(F)F | -17%[121 µM] | -13%[129 µM]
O=C(CSc1nc2c(c(=O)[nH]1)CCCC2)Nc1ccc(Br)cc1 | -12% | -18%
O=C(CSc1nc(-c2cccs2)nc2cc(=O)[nH]n12)Nc1ccccc1Cl | -18% | -11%
O=C(CSc1nc2ccccc2o1)c1ccc2ccccc2c1 | 8% | -5%
CCC(=O)Nc1cccc(NC(=O)c2cnn(-c3ccc(F)cc3)c2C(F)(F)F)c1C | 15% | 1%
CC(Sc1nnc(N2CCOCC2)n1-c1cccc(F)c1)c1nc2ccccc2c(=O)[nH]1 (stereo not given) | 9% | -9%
CC(C)/C=N/NC(=O)C1CC1 | 26% | -9%
CC(=O)Nc1ccc(NC(=O)c2nc(SCc3ccccc3C)ncc2Cl)cc1 | ? | ?
CCOc1ccc(NC(=O)CCCn2c(=O)c3cccn3c3ccccc32)cc1 | -8% | -15%
CCOC(=O)C1C(c2ccc(OC)c(OC)c2)NC(=O)NC1(O)C(F)(F)F (stereo not given) | -5% | 4%
(more compounds)
SMILES | 2A firefly | StopGo RLuc
COc1ccc(-c2nc3c(s2)CN(C(C(=O)O)c2c[nH]c4cc(CO)ccc24)CC3)cc1OC (stereo not given) | 208%[activator] | 9%
CCCCn1c(SCC(=O)NCC)nc2cc(C(=O)OC)ccc2c1=O | 25% | 3%
Cn1c(=O)[nH]c(=O)c2c1nc1n(-c3ccc(F)cc3)c(-c3ccccc3)cn21 | 22% | 9%
COCC(C)NC(=O)C1=CC(c2ccc3c(c2)OCO3)=NS(=O)(=O)N1C (stereo not given) | 1% | -8%
Cc1ccc(-n2c(=O)c3ccccc3n(CC(=O)Nc3cccc(C(F)(F)F)c3)c2=O)cc1 | 2% | 9%
CC(C)CCSc1nc2c(c(=O)[nH]c(=O)n2C)n1C(C)C | 11% | -2%
CCCCn1c(=O)[nH]c(=O)c2c1nc(CSc1nnnn1-c1ccc(C)cc1C)n2CC | 0% | 18%
COc1ccc(CN(C(=O)COc2ccccc2OC)C2CCS(=O)(=O)C2)cc1 (stereo not given) | -15% | -17%
CNC(=O)Cc1ccc(NC(=O)C2CCCC2)cc1 | 8% | -3%
CCOc1ccc(N(CC)C(=O)c2nn(-c3ccc(OC)cc3)c(=O)c3c2c2ccccc2n3C)cc1 | -14% | 5%
CC(C)(C)C1=C(C#N)C(c2ccc3c(c2)OCO3)C(C#N)=C(N)O1 (stereo not given) | 12% | -6%
COc1ccc(/C=C/C(=O)c2ccc(O)c(CCCl)c2)c(Cl)c1 | 9% | 11%
CN(C1CCCCCC1)S(=O)(=O)c1ccc2oc(=O)ccc2c1 | 10% | 21%
Cc1cccc(N(CC(N)=O)C2SC(=O)N(Cc3cccc(C(=O)O)c3)C2=O)c1 (stereo not given) | -8% | -1%
O=C(/C=C/C1=Cc2ccccc2OC1)c1cccc(O)c1 | 72%[activator] | 4%
Cc1ccc(NC(=S)NNC(=O)c2csc(C)c2)cc1 | 199%[activator] | 94%[activator]
O=C(/C=C/c1ccccc1)/C=C/c1ccc(-c2ccccc2)cc1 | 13% | 3%
COc1ccc(-c2c(C)oc3cc(OC(=O)C(C)(C)C)ccc3c2=O)cc1 | -2% | -5%
CCOC(=O)c1c(S(=O)(=O)N2CCC(C(=O)N3CCN(c4ccc(F)cc4)CC3)CC2)c(C)n(C)c1C | -16% | -4%
Cc1ccc(-c2nc(SCC(=O)Nc3cc(C)on3)c3c(=O)n(C)c(=O)n(C)c3n2)cc1 | -11% | -5%
COc1cccc(-c2nnc(SCC(=O)N3CCC(C)CC3)o2)c1 | 17% | 6%
O=c1c2sc3ccccc3c2n(Cc2cccc(F)c2)c(=O)n1Cc1ccccc1 | -15% | -9%
CCN(CC)c1ccc(NC(=O)C(Cc2ccccc2)NS(=O)(=O)c2ccc(Br)s2)c(C)c1 (stereo not given) | ? | 5%
C#C[C@]1(O)CC[C@H]2[C@@H]3CCc4cc(OC)ccc4[C@H]3CC[C@@]21C | -7%[11.5 µM] | -7%
COc1ccc(CNC(=O)C(C)OC(=O)C23CC4CC(CC(C4)C2)C3)cc1 (stereo not given) | 25% | 13%

Whole records from above. Values in the order: 2A firefly	StopGo RLuc
CC(C)CCSc1nc2c(c(=O)[nH]c(=O)n2C)n1C(C)C reads 11%	-2%
CCCCn1c(=O)[nH]c(=O)c2c1nc(CSc1nnnn1-c1ccc(C)cc1C)n2CC reads 0%	18%

Further records:
SMILES | 2A firefly | StopGo RLuc
C=CCNC/C=C/c1ccccc1 | -12% | 0%
Cc1ccc(NCc2cccn2-c2nnc(N3CCCCCC3)s2)cc1 | 0% | 15%
COCCCNC(=O)C(=O)NCC(c1ccc2c(c1)OCO2)N1CCOCC1 (stereo not given) | 0% | -8%
COc1ccc(NC(=O)c2cc(S(=O)(=O)N3CCCC3)ccc2OC)cc1 | -18% | 43%[activator]
CCOC(=O)c1cccc(-n2nnc3c(sc4nc(C)c(Br)c(C)c43)c2=O)c1 | 9% | -12%
COC(=O)c1ccc(CSc2nc3c([nH]c4ccccc43)c(=O)n2-c2ccc(Cl)cc2)o1 | -14% | -2%
Cc1cccc(NC(=S)NNC(=O)c2ccc(-c3ccccc3)cc2)c1 | 92%[activator] | 43%[activator]
COc1ccc(N(C)S(=O)(=O)c2ccc3c(c2)CCN3C(=O)CCC(=O)O)cc1 | -16% | -8%
Oc1ccccc1Nc1nc2ccccc2n2nnnc12 | 79%[activator] | 8%
COc1ccc(OCC(=O)Nc2ccc3c(C)cc(=O)oc3c2)cc1 | 1% | -11%
COc1cccc(-c2cc(C(F)(F)F)nc(NCCc3ccc(OC)c(OC)c3)n2)c1 | 24% | 22%
O=S(=O)(Nc1cccc(Cl)c1)c1ccc2[nH]c3c(c2c1)CCCCCC3 | -3% | -2%
Cc1nc(/C=C/C(=O)N(Cc2ccccc2)C2CC2)cs1 | 4% | 65%[activator]
CCOc1ccc(NC(=O)c2cc(=O)c3cc(CC)ccc3o2)cc1 | -3%&-11% | -10%&-7%
CCCn1c(=O)c2ccc(C(=O)NC(C)CC)cc2n2c(SCc3ccccc3)nnc12 (stereo not given) | 20% | 8%
C/C(=C/C(=O)C(F)(F)F)N1CCc2ccccc2C1 | -4% | -2%
COC(=O)C(C)Oc1ccc2c(C)c(-c3ccc(OC)c(OC)c3)c(=O)oc2c1 (stereo not given) | 6% | -2%
Cc1cc(CNC(=O)COc2cccc3ccccc23)c2ccccc2n1 | -24% | -6%
Cc1cc2ccccc2n1CC(=O)N1CCN(CC(=O)NC2CC2)CC1 | 25% | 10%
Cc1ccc(C)c(NS(=O)(=O)c2cc3c(cc2C)n(C)c(=O)c(=O)n3C)c1 | -9% | 23%
CCN(CC)C(=O)Cc1c(C)[nH]c2ccc(F)cc12 | 1% | 0%
Cc1cc(C)c(Cn2c3ccccc3c3cnn(CC(=O)NC4CCCCCC4)c(=O)c32)c(C)c1 | -7% | -12%
COC(=O)c1cc(NC(=O)CCc2c(C)nc3cc(-c4ccccc4)nn3c2C)cc(C(=O)OC)c1 | -26% | 43%[activator]
CN1C(=O)c2ccc(NC(=O)C(F)(F)C(F)(F)C(F)(F)F)cc2C1=O | 4% | -4%
Cc1cc(C)c(/C=N/NC(=O)c2csc3ccccc23)c(C)c1 | 0% | 50%[activator]

Next section, overlapping the part above by seven compounds.
SMILES | 2A firefly | StopGo RLuc
Cc1cc2ccccc2n1CC(=O)N1CCN(CC(=O)NC2CC2)CC1 | 25% | 10%
Cc1ccc(C)c(NS(=O)(=O)c2cc3c(cc2C)n(C)c(=O)c(=O)n3C)c1 | -9% | 23%
CCN(CC)C(=O)Cc1c(C)[nH]c2ccc(F)cc12 | 1% | 0%
Cc1cc(C)c(Cn2c3ccccc3c3cnn(CC(=O)NC4CCCCCC4)c(=O)c32)c(C)c1 | -7% | -12%
COC(=O)c1cc(NC(=O)CCc2c(C)nc3cc(-c4ccccc4)nn3c2C)cc(C(=O)OC)c1 | -26% | 43%[activator]
CN1C(=O)c2ccc(NC(=O)C(F)(F)C(F)(F)C(F)(F)F)cc2C1=O | 4% | -4%
Cc1cc(C)c(/C=N/NC(=O)c2csc3ccccc23)c(C)c1 | 0% | 50%[activator]
S=C(NCCSc1ccc(Cl)cc1)Nc1ccc(Nc2ccccc2)cc1 | -35% | -29%
CC(Sc1nc2ccc(F)cc2c(=O)[nH]1)C(=O)NC1CCCC1 (stereo not given) | -5% | -8%
CCc1ccc(NCc2cc3cc4c(cc3n(CC(=O)Nc3ccccc3Cl)c2=O)OCO4)cc1 | 33%[activator] | -5%
CCOC(=O)c1cnc2c(Cl)cccc2c1Nc1ccccc1OC | 1% | -6%
Cc1ccc(NC(=O)Cc2coc3ccc(C(C)C)cc23)c(C)c1 | -14% | 12%
O=C(/C=C/N(C1CCCCC1)C1CCCCC1)C(F)(F)F | 22% | 3%
O=C(CSc1ccc2ccccc2n1)N(C1CC1)C1CCS(=O)(=O)C1 (stereo not given) | -9% | -16%
CN(C)C(=S)SC(=S)N(C)C | -14% | -6%
COc1cccc(C(=O)N(Cc2ccc(N(C)C)cc2)Cc2ccco2)c1 | 0% | 6%
